# Bioassay records as filed in PubChem.
# gsp antag: qHTS for Antagonists of gsp, the Etiologic Mutation Responsible for Fibrous Dysplasia/McCune-Albright Syndrome: qHTS; gsp-mutant cells, cAMP HTRF, 30 min; control for the full effect not named in the record; Potency, µM (doses to about 76.9 µM), without a hit: at the top dose activity change, negative = inhibition, actives largely listed as inhibitors; 0.4% of 340,000 active; active = falling curve of any shape with a large fitted effect; inconclusive = falling curve, mostly with a smaller effect; inactive = flat or rising curve; cell line not stated here;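 note: intracellular cAMP measured with PDE inhibitor Ro 20-1724 present during compound exposure; potency is the fitted concentration of half-maximal effect; % is set by controls: 0 for no effect and ±100 for the full control effect; nearly all actives have a fitted effect of over 65% in size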
#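 Cells in G418 medium, seeded 16-24 h, 37C; buffer exchange to DPBS + 1 mM CaCl2, 0.5 mM MgCl2, 0.05% BSA; cpds in DMSO + […] (300 uM stock), 30 min 37C; HTRF cAMP detection.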
# gsp agonist: qHTS for Agonist of gsp, the Etiologic Mutation Responsible for Fibrous Dysplasia/McCune-Albright Syndrome: qHTS | gsp mutant cells, cAMP HTRF, 30 min; control for the full effect not named in the record | Potency, µM (series often up to 76.9 µM), for the others: at the highest dose activation (cAMP increase), most hits filed as activators | 0.13% of 340,000 active; active = well fitted activation curve with a large enough effect; inconclusive = small, poorly fitted or top-dose-only effect, or another doubt; inactive = no such curve, though single readings can be large or run the other way; cell line not stated here;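 note: phosphodiesterase inhibitor Ro 20-1724 added with compounds to block cAMP breakdown; potency is the fitted concentration of half-maximal effect; nearly all actives have a fitted effect of over 60% in size; about a fifth of the inactives were tested at one dose only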
#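 Cells stably selected in G418 were plated at 2000/well, grown 16-24 hr, then given compounds in DMSO with the PDE inhibitor […] (300 uM solution added) for 30 min at 37C; cAMP was read by HTRF.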
# Menin MLL FP FL: qHTS Assay for Inhibitors Targeting the Menin-MLL Interaction in MLL Related Leukemias: Competition With Fluorescein Labeled MLL-derived Peptide. Fluorescence polarization, fluorescein-MLL peptide displacement from menin. FP activity change, % at 61.4 µM. 290,000 tested, under 10 active; inconclusive = falling polarisation curve, or a change in total fluorescence; inactive = total fluorescence flat and polarisation flat or rising; no compound was filed as active; the % refers to the polarisation; negative = inhibition;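 note: % of control where 0% means no effect; inhibitors lower the polarisation; unlabelled MLL peptide was the positive control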
# ClpP mod: qHTS Assay for Activators of ClpP; ATP-dependent Clp protease proteolytic subunit (Bacillus subtilis (strain 168)), P80244; 1.9% of 340,000 active; purified B. subtilis ClpP, FRET peptide cleavage, 20 min; Potency, µM (titrated, usually from 57.5 µM), for the others: at the top dose activity change, negative = active; active = well fitted falling curve with a large enough effect; inconclusive = small, poorly fitted or top-dose-only effect; inactive = no such curve, though single readings can be large or run the other way; note: potency is the fitted concentration of half-maximal effect; the source files actives as falling curves though it sought activators and does not explain the sign; nearly all actives have a fitted effect of over 65% in size; many hits overshoot -100%
# Target sequence (P80244 whole entry, looked up): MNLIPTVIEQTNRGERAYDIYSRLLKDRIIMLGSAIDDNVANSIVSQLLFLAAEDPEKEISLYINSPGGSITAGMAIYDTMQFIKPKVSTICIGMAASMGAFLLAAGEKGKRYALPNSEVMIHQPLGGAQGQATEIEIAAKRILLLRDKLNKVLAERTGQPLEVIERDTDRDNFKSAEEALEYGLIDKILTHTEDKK
#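 ClpP 10 microg/mL final, pH 8 Tris/KCl buffer with BSA, glycerol, Tween-20; compound pinned in; FRET-FV substrate; RT 20 min; Ex320/Em430; ΔFRET vs ADEP 5.8 microM, DMSO, no enzyme.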
# CtBP-E1A inh: qHTS Assay for Inhibitors of the CtBP/E1A Interaction; 0.49% of 340,000 active; AlphaScreen GST-E1A/His-CtBP binding, 1536-well; active compounds read low; control for the full effect not named in the record; AID 651724, 2012; activity change, % (concentration not given with the values); in the data active means activity change below about -65%; inconclusive means about -30% to -65%; inactive means above about -30%; note: % is set by controls: 0 for no effect and ±100 for the full control effect
#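 Steps: dispense buffer (Tris pH 8.0, NaCl 300 mM, TCEP 1 mM, BSA, Tween 20); add 5X protein mix (GST-E1A, His-CtBP, 125 nM each); pin 23 nL compound; 2 h at 37 °C, dark; add 5X beads (50 ug/mL); 1 h; read.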
# Sfp PPTase inh: qHTS Assay for Inhibitors of Bacillus subtilis Sfp phosphopantetheinyl transferase (PPTase) | 4'-phosphopantetheinyl transferase ffp (Bacillus subtilis), Q9F4F7 | Biochemical Sfp PPTase activity, qHTS | Potency, µM, for inactives: max response, negative = inhibition, hits mostly inhibitors | 3.5% of 310,000 active | AID 1490, 2009; active = well fitted inhibition curve with a large enough effect; inconclusive = small, poorly fitted or top-dose-only effect, or another doubt; inactive = no such curve, though single readings can be large or run the other way;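 note: the enzyme is Sfp with the accession as filed and its product quenches rhodamine fluorescence; potency is the fitted concentration of half-maximal effect; 0% = enzyme reaction without inhibitor and -100% = no enzyme wells; top concentration of the series not given in the record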
#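 Compounds were incubated with enzyme (final 15 nM) for 15 min at room temperature before substrate addition started the reaction. Fluorescence at 525 nm excitation, 598 nm emission was recorded immediately and after 30 minutes.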
# TRPV1 potentiator: HTS Assay for Compounds that Act as Potentiators of the Vanilloid Receptor 1; Transient receptor potential cation channel subfamily V member 1 (Homo sapiens), Q8NER1; TRPV1-expressing cells, Fluo-8 calcium influx, capsaicin EC20 potentiation; host cell line not named in the record; control for the full effect not named in the record; potentiation, % at 8.33 µM; 0.02% of 320,000 active; AID 540277, 2011; active means potentiation above 80%; inconclusive means 30% to 80%; inactive means below 30%; note: 0% is about no effect
# Target sequence (Q8NER1 whole entry, looked up): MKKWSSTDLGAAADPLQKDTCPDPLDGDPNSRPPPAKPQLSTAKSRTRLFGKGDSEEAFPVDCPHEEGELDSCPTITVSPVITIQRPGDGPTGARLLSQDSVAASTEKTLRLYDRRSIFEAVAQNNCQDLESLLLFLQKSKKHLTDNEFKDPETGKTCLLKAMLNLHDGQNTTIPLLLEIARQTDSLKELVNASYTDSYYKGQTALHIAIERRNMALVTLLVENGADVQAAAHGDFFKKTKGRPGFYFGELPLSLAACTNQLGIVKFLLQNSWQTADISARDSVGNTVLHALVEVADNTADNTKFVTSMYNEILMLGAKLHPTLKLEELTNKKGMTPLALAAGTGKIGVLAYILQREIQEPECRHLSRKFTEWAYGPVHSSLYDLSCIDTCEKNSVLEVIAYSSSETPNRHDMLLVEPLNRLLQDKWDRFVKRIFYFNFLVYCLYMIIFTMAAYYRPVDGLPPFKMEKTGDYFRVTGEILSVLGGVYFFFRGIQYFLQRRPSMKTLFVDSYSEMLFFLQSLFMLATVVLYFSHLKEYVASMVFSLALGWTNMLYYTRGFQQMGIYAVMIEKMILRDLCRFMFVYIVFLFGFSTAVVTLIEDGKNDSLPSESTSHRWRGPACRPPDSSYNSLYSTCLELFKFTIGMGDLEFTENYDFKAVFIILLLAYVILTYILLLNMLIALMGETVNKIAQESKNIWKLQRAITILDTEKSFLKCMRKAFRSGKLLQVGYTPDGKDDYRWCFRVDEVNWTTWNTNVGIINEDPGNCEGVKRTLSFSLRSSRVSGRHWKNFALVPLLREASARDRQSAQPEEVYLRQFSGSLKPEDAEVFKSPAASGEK
#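 Fluo-8 calcium influx in TRPV1-expressing cells, kinetic read (ex 480/em 520 nm). Compound added and read 3 min for agonist activity, followed by capsaicin at EC20 final and 2 min further read for enhancement.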
# * hit, by the source's call; ? = inconclusive; . = no result given; & = joins results of further samples; [ ] = another dose, or the depositor's remark.
# Preview:
SMILES,gsp antag,gsp agonist,Menin MLL FP FL,ClpP mod,CtBP-E1A inh,Sfp PPTase inh,TRPV1 potentiator
COc1ccc(CNC(=O)C(C)n2nc(C)c3c(C)n(-c4ccccc4)nc3c2=O)c(OC)c1 (centres undefined),-1.8%,22.1%,.,-1.7%&2.2%,0.3,16.2%,-6.2
COc1ccc(C(=O)Nc2ccc(N3CCN(c4ccc(OC)cc4)CC3)c(C#N)c2)cc1,4.4%,?,4.3,-13.7%,1.4,12.3%,2.8

# The whole of this part, repeating the preview:
SMILES,gsp antag,gsp agonist,Menin MLL FP FL,ClpP mod,CtBP-E1A inh,Sfp PPTase inh,TRPV1 potentiator
COc1ccc(CNC(=O)C(C)n2nc(C)c3c(C)n(-c4ccccc4)nc3c2=O)c(OC)c1 (centres undefined),-1.8%,22.1%,.,-1.7%&2.2%,0.3,16.2%,-6.2
COc1ccc(C(=O)Nc2ccc(N3CCN(c4ccc(OC)cc4)CC3)c(C#N)c2)cc1,4.4%,?,4.3,-13.7%,1.4,12.3%,2.8
CSCCC(NC(=O)c1ccco1)C(=O)NCC(c1ccco1)N1CCCCC1 (centres undefined),10.9%,-17.1%,.,-0.5%,2.4,.,0.0
CCC(Cc1ccccc1)n1c(=S)[nH]c2ccccc2c1=O (centres undefined),-7.4%,-5.9%[15.4 µM],-4.3,.,0.3,22.0%,-20.3
Cc1ccc(O)c(-c2cc(C(=O)NCc3ccc4c(c3)OCO4)[nH]n2)c1,-1.6%,-5.7%,2.8,-20.7%,3.5,1.7%,1.6
CN(NC(=O)COc1ccccc1)c1ccccc1,8.3%,-19.3%,-2.9,-1.4%,-10.8,19.3%,-6.7
Cc1onc(-c2ccccc2)c1C(=O)NC(C)c1ccccc1 (centres undefined),-7.4%,7.7%,.,.,4.3,.,.
O=C(COC(=O)Cn1cnc2ccccc2c1=O)Nc1ccccc1OC(F)F,1.4%,-10.0%,.,.,-6.4,.,.
CCN(C(=O)COC(=O)c1cc(-c2ccccc2)nc2c1c(C)nn2-c1ccccc1)C1CCS(=O)(=O)C1 (centres undefined),10.7%,2.4%,9.8,?,14.0,-6.8%,5.1
COc1ccc(CCN=C(N)NS(=O)(=O)c2ccc(OC)cc2)cc1,5.1%,2.0%,5.1,0.7%,-9.7,18.0%,5.4
CCCCN(CC)C(=O)Cn1cnc2sc(C)c(S(=O)(=O)N3CCC(C)CC3)c2c1=O,-9.6%,-2.3%[15.4 µM],2.6,.,-7.5,7.7%,-2.1
CCCCn1c(N)c(N(CC(C)C)C(=O)c2ccc(Br)o2)c(=O)[nH]c1=O,10.7%,17.7%[15.4 µM],.,.,-10.4,.,2.0
Cc1ccc(C)c(NC(=O)CN(C)C(=O)c2ccc3ncsc3c2)c1,4.8%,-43.4%[inhibitor],.,-1.1%,-24.0,.,-3.7
CCC(=O)NC1(C(F)(F)F)C(=O)Nc2c1c(=O)[nH]c(=O)n2CC(C)C (centres undefined),6.4%,4.7%,1.3,-1.5%,.,22.1%,-0.2
Cc1ccc(-c2ccc(CN3C(C(C)C)C(=O)N(Cc4cn(CCC5OCCCO5)nn4)CCS3(=O)=O)cc2)cc1 (centres undefined),.,1.2%,.,-0.2%,-0.1,.,.
O=C(Nc1nccs1)c1cncc(Br)c1,0.1%,-8.2%[15.4 µM],1.2,-1.8%,5.0,5.9%,3.0
O=C(NCCc1ccccc1)C(=O)NCC1OCCN1S(=O)(=O)c1ccc(Cl)cc1 (centres undefined),-0.8%,-14.2%[15.4 µM],3.9,.,8.0,15.8%,-4.9
Cc1cc(C)c(CNC(=O)c2cc(C3CC3)nc3c2cnn3C(C)C)c(=O)[nH]1,-21.6%,-93.0%[inhibitor],.,-17.6%,7.5,.,-10.3
O=C(NCC1CCCO1)C(=O)NCC(c1ccco1)N1CCN(c2ccccc2F)CC1 (centres undefined),11.8%,4.7%[15.4 µM],1.9,0.7%,-19.8,8.2%,-1.1
CN(C)S(=O)(=O)c1ccc(C(=O)Nc2ccccn2)cc1,-0.1%,-6.0%,2.5,0.0%,6.6,12.6%,-1.2
CCCc1cc2c(=O)c(-c3cscn3)c(C(=O)OCC)oc2cc1O,-5.7%,?,-0.4,.,4.4,-16.0%,8.8
Cn1cccc1C(=O)N/N=C/c1c(Cl)cccc1Cl,23.3%,14.3%[15.4 µM],3.1,-0.6%,1.5,15.2%,4.8
CC(=O)NC1=NN(C(C)=O)C(C)(c2ccc3ccccc3c2)S1 (centres undefined),7.3%,24.6%,-3.3,-2.3%,-0.2,4.2%,18.9
Cc1cc(=O)n2[nH]c(SCc3ccccc3Cl)nc2n1,-7.8%,-19.7%,0.4,.,5.2,6.4%,0.6
Cc1nn(-c2ccccc2)c2nc(N)c(C(N)=O)cc12,7.9%,-4.2%[15.4 µM],.,0.0%,-0.6,4.2%,0.8
Clc1ccccc1CN1CCSCC1,8.0%,2.8%,-0.4,1.6%,7.5,?,29.2
Cn1c(=O)oc2cc(S(=O)(=O)Nc3ccc4c(c3)OCO4)ccc21,-8.1%,11.5%,12.2,-3.4%,-9.7,-20.5%,0.4
O=C(NC(=S)Nc1cccc2c(O)cccc12)c1ccccc1[N+](=O)[O-],2.4%,3.1%,4.5,-1.3%,-7.3,13.1%,-7.4
O=C(O)CSc1nnnn1C1CCCCC1,4.8%,0.6%[15.4 µM],-0.6,.,6.4,9.4%,-0.3
COc1cc(NC(=O)c2[nH]c(C)c(C(C)=O)c2C)cc(OC)c1OC,-9.6%,24.6%,5.4,.,-3.7,13.3%,-7.8
Cc1noc(C)c1CSc1nc2sc(C)c(C)c2c(=O)n1C1CCCC1,-14.9%,13.6%,6.3,-3.6%,-9.1,-15.5%,8.3
c1ccc(COC2CCCN(Cc3nc(-c4cnccn4)no3)C2)cc1 (centres undefined),-5.7%,-22.2%,4.8,.,5.6,0.7%,-4.7
O=C(O)C1CC(=O)N(c2ccc(F)c(F)c2)C1 (centres undefined),1.9%,-3.1%,-2.0,-4.5%,-6.7,11.9%,5.2
COc1ccc(-c2csc3nc(C(C)C)oc(=O)c23)cc1OC,-19.2%,5.2%[15.4 µM],4.4,.,.,0.9%,-0.9
CCOC(=O)C1CCCN(C(=O)COc2ccc(S(=O)(=O)N3CCOCC3)cc2)C1 (centres undefined),3.6%,-0.9%[15.4 µM],.,-2.7%,0.8,.,.
CC(=O)N1c2ccc(S(=O)(=O)NCCC(=O)Nc3ccc(Cl)cc3)cc2CC1C (centres undefined),.,-34.9%[inhibitor],.,-0.2%,6.9,.,.
COc1cc(C2C(C(=O)c3ccco3)=C(O)C(=O)N2Cc2ccccc2)ccc1O (centres undefined),-0.7%,6.4%[15.4 µM],.,.,2.0,1.4%,4.7
CCOC(=O)c1ccc(NC(=O)C2CCN(S(=O)(=O)c3ccccc3)CC2)cc1,?,10.8%,.,1.2%,-5.2,.,.
O=C1CC2CS(=O)(=O)CC2N1C1CCCCC1 (centres undefined),2.0%,0.0%,-1.4,3.1%,5.4,19.9%,.
CNC(=O)/C(C#N)=C/c1ccc(-c2ccc(OC)cc2[N+](=O)[O-])o1,-21.7%,-13.9%,-3.3,0.2%,-6.0,9.3%,0.2
CCOc1ccc2nc(NC(=O)CN3CCN(c4ccccn4)CC3)sc2c1,-24.7%,-40.1%[inhibitor],-0.1,-9.5%,-4.8,-5.4%,-9.3
CCOC(=O)N1CCC(NC(=O)c2sc3nc4n(c(=O)c3c2C)CCCC4)CC1,2.9%,-2.3%,-1.4,-12.7%,10.4,19.1%,1.9
CCOc1ccccc1OCC(=O)Nc1ccc2[nH]c(=O)[nH]c2c1,1.9%,?,.,-1.5%,.,.,-5.6
COCCn1c(C)cc(C(=O)CSc2cc(C)c3ccc(OC)cc3n2)c1C,-7.8%,2.4%,8.8,?,?,-18.1%,-3.1
CCCN=C(C)c1c(-c2ccccc2)[nH]n(-c2nc3ccccc3s2)c1=O,-5.5%,?,2.1,148.4%,2.0,4.4%,-5.7
CCC1CCCCN1C(=S)Nc1ccc(S(=O)(=O)Nc2ncccn2)cc1 (centres undefined),1.2%,-50.4%[inhibitor],.,-6.0%,-6.9,16.6%,13.6
CCOC(=O)c1c(NC(=O)CN2CCCCC2)sc2c1CCC(C=O)=C2Cl,-4.5%,-16.9%,?,1.6%,1.1,20.4%,3.5
CC1CCCN(c2ccc(C(=O)NCc3ccco3)cc2[N+](=O)[O-])C1 (centres undefined),-15.0%,8.2%[15.4 µM],3.6,-1.5%,0.1,-10.3%,-5.7
COc1cc(NC(=O)Cc2ccccc2)nc(OC)n1,8.5%,-28.1%,-8.9,-1.2%,3.2,9.3%,22.2
Cc1cccc(C(=O)NCC(=O)OCC(=O)NCCNC(=O)COC(=O)CNC(=O)c2cccc(C)c2)c1,4.5%,8.2%[15.4 µM],.,1.1%,2.6,.,16.2
Cc1c(NC(=O)CN(C)CC(=O)Nc2ccc(F)c(F)c2F)c(=O)n(-c2ccccc2)n1C,11.3%,16.5%,.,0.4%,11.2,.,.
CC1CCCCN1C(=O)c1cc2ccccc2cc1O (centres undefined),4.1%,3.9%,.,-8.6%,-9.9,-6.1%,16.1
Nc1ccc2c(c1)C(=O)N(CC1CCCO1)C2=O (centres undefined),-2.2%,-14.4%,-20.1,-13.2%,-1.6,-5.9%,11.2
Cc1ccc2c(c1)CO[C@@]21O[C@H](CCO)C[C@H](O)[C@H]1O,.,-16.7%,.,-1.2%,3.7,.,.
O=S(=O)(Cc1cc(NCc2ccccc2)nc(-c2ccccn2)n1)c1ccccc1,2.4%,3.2%[15.4 µM],-1.4,.,-26.9,6.6%,-1.3
Cc1oc2nc(SCC(=O)NCCCO)nc(N)c2c1C,15.1%,24.0%,-5.0,0.3%,2.4,12.6%,-6.3
CN(C)/C=N/NC(=O)c1ccc(Cl)cc1,5.9%,21.6%[15.4 µM],-0.2,.,.,11.7%,1.7
